Assay outcomes: PubChem BioAssay, National Center for Advancing Translational Sciences (NCATS)
NPR1 antag – Natriuretic polypeptide receptor (hNpr1) antagonism - Primary qHTS; Atrial natriuretic peptide receptor 1 (Homo sapiens), P16066; 76,000 tested, 1.6% active; HEK293 hNpr1 GloSensor cGMP, ANP-stimulated luminescence; Potency, µM (series often up to 46.3 µM), without a hit: at the top dose activity change, negative = inhibition, hits mostly inhibitors; active = well fitted inhibition curve with a large enough effect; inconclusive = small, poorly fitted or top-dose-only effect; inactive = no such curve, though single readings can be large or run the other way;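 further: nearly all actives have a fitted effect of over 60% in size; nearly all hits also lower the signal before the agonist is added; a reference antagonist and vehicle were the controls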
Target sequence (P16066 whole entry, looked up): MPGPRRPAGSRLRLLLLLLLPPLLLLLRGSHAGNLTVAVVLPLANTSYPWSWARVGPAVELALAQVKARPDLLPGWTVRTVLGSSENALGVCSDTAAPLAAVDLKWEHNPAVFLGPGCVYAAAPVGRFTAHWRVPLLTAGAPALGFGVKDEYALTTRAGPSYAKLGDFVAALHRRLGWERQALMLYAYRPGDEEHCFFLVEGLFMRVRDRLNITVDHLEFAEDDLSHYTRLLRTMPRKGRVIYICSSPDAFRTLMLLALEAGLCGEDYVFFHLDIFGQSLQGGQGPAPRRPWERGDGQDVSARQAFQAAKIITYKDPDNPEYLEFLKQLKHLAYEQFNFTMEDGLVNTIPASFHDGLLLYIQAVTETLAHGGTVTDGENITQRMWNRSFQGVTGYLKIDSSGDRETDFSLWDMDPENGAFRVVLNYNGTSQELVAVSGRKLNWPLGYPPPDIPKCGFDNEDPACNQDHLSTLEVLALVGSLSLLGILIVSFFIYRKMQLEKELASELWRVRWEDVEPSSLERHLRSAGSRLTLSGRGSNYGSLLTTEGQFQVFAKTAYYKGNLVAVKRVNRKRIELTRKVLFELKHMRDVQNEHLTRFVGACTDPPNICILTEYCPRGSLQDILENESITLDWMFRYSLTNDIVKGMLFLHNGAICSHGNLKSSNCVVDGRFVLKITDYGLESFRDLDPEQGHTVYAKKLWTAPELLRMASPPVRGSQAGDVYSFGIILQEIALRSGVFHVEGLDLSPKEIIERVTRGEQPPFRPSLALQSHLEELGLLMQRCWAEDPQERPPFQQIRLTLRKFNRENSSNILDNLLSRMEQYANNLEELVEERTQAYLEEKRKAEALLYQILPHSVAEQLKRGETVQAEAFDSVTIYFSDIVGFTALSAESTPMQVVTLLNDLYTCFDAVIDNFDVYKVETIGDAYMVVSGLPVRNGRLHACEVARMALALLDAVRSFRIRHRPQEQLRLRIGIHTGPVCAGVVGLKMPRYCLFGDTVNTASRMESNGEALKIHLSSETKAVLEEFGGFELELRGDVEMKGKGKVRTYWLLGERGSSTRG
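HEK293 cells stably expressing human Npr1 and cGMP GloSensor pGS-40F, loaded 2 h with 2% GloSensor reagent, given compound 30 min at room temperature. Luminescence read before and 20 min after 0.1 nM hNppA.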
* marks the source's active call; other numbers are inactive results; [ ] = dose if it differs, or a comment. On the % scale 0 is the no-effect control and ±100 the full control effect; potency means the concentration at half of the fitted maximal effect. The list is partial; count on the stated rates, not on these rows.

Results for COc1ccc2[nH]c3c(c2c1)CCNC31CCN(C(=O)c2ccc(C)nc2)CC1 ?
NPR1 antag: 1%

Results for COC(=O)[C@@H]1Cc2c([nH]c3ccccc23)[C@H]2C[C@@H](NCCN(C)C)C[C@@H](c3cccc(Cl)c3)N21 ?
NPR1 antag: -14%

What do the screens show for `COc1ccc(F)cc1CN1CCC(CO)(CN2CCCC2)CC1`?
NPR1 antag: 6%

Results for CS(=O)(=O)c1ccc(CN2CC[C@H](c3nc4ncccc4[nH]3)C2)cc1 ?
NPR1 antag: 0%[70.6 µM]

What do the screens show for `COc1ccc(CNC(=O)C2Cn3cccc3C(=O)N2C)cc1OC` (centres undefined)?
NPR1 antag: -7%

What do the screens show for `CNCCN1C(=O)CC[C@H]2CN(C(=O)c3ccnc(NC)c3)CC[C@H]21`?
NPR1 antag: 2%

How did COc1ccc(CNC(=O)c2cccc3c2CCN3C(=O)c2ccc(F)cc2)cc1OC do in these assays?
NPR1 antag: 8.9µM*

Results for CN1CCN([C@H]2[C@@H]3OC[C@@H](O3)[C@@H](NC(=O)Nc3cccc(C#N)c3)[C@@H]2O)CC1 ?
NPR1 antag: 4%[70.6 µM]

Results for O=S(=O)(c1ccsc1-c1nc(-c2cccnn2)no1)N1CCCC1 ?
NPR1 antag: -2%

What do the screens show for `CCc1nc2c(c(-c3ccc(O)cc3)n1)CCN(Cc1ccc(OC)cc1)CC2`?
NPR1 antag: -18%

What do the screens show for `Cc1ccc(-n2nc3n(c2=O)CCN(C(=O)c2ccc(F)cc2)C3)cc1`?
NPR1 antag: 3%

Results for COc1ccc(CCC(=O)N2CCC3(CC2)NC(=O)N(c2ccc(F)cc2)N3)cc1 ?
NPR1 antag: 5%

How did CCOCc1nc(C2CCCN(C(=O)C(CC)CC)C2)no1 (centres undefined) do in these assays?
NPR1 antag: 1%

How did O=C1NCCCCCCN(Cc2ccncc2)[C@@H]2CN(S(=O)(=O)c3ccccc3)CC[C@H]12 do in these assays?
NPR1 antag: -3%

Results for CCN1CCN(CCNC(=O)c2cc(-c3ccc(Cl)cc3)cn2C)CC1 ?
NPR1 antag: -1%

Retrieved one by one from the list above:
What do the screens show for `COc1ccc(F)cc1CN1CCC(CO)(CN2CCCC2)CC1`?
NPR1 antag: 6%

Results for COC(=O)[C@@H]1Cc2c([nH]c3ccccc23)[C@H]2C[C@@H](NCCN(C)C)C[C@@H](c3cccc(Cl)c3)N21 ?
NPR1 antag: -14%

Returning to the listing, starting 2 compounds before the break.
How did O=C1NCCCCCCN(Cc2ccncc2)[C@@H]2CN(S(=O)(=O)c3ccccc3)CC[C@H]12 do in these assays?
NPR1 antag: -3%

Results for CCN1CCN(CCNC(=O)c2cc(-c3ccc(Cl)cc3)cn2C)CC1 ?
NPR1 antag: -1%

What do the screens show for `CC(C)C(=O)NC1CCCc2c1[nH]c1c(Cl)cccc21` (centres undefined)?
NPR1 antag: -4%

What do the screens show for `COCC1CCN(c2ccc(-c3nc(-c4ccccc4C)no3)cn2)C1` (centres undefined)?
NPR1 antag: inconclusive

Results for COc1ccc(C2Cn3cnc(C(=O)N4CCC(C(=O)NCCc5ccccc5)CC4)c3CO2)cc1 (centres undefined) ?
NPR1 antag: 2%

Results for O=C1CC2(CCN(Cc3ccc(C(F)(F)F)cc3)CC2)Oc2ccccc2N1c1ccccc1 ?
NPR1 antag: -29%

Results for Cc1ccc(-c2nnc([C@H]3CCN(C(=O)CCC(=O)O)C3)o2)cc1 ?
NPR1 antag: 8%[70.6 µM]

What do the screens show for `O=C(O)c1ccc(CN2CC[C@H](c3nnc(-c4ccc(Cl)cc4)o3)C2)cc1`?
NPR1 antag: -4%[70.6 µM]

What do the screens show for `O=C(NC1CCCc2c1[nH]c1ccccc21)c1cccs1` (centres undefined)?
NPR1 antag: -3%

Results for CC(C)(Oc1nn(CC2CCOCC2)c2ccccc12)C(=O)Nc1ccccn1 ?
NPR1 antag: 4%[70.6 µM]

Results for CCc1cnc(N2CCC(Oc3cnc4c(ccn4CCN[S+](C)(=O)[O-])c3)CC2)nc1 ?
NPR1 antag: 6.3µM*

What do the screens show for `CN(Cc1ccccc1)Cc1ccccc1C(F)(F)F`?
NPR1 antag: 25%[70.6 µM]

How did O=C(COc1ccc2nncn2n1)N1CCOCC(O)(CN2CCCC2)C1 (centres undefined) do in these assays?
NPR1 antag: 1%

Results for Cc1ccc2nc(CO[C@H]3CN(Cc4nccn4C)C[C@H]3F)[nH]c2c1 ?
NPR1 antag: -1%[70.6 µM]

Results for COc1ccc(N2CC(NC(=O)c3cc(C(C)C)n4ncnc4n3)CC2=O)cc1 (centres undefined) ?
NPR1 antag: 4%

Results for CC1CCC2(CC1)OCC(C(=O)NCc1ccccc1)N2C(=O)c1cccc(Cl)c1 (centres undefined) ?
NPR1 antag: -9%

How did Cc1ccc(C(=O)NC2CC(=O)N(CCCc3ccccc3)C2)s1 (centres undefined) do in these assays?
NPR1 antag: 2%

How did COc1ccc(CCC(=O)N2CC3CC(C2)[C@H]2CCCC(=O)N2C3)cc1 (some centres undefined) do in these assays?
NPR1 antag: -2%

Results for COc1ccc(-c2ccc3ncc(Nc4ccccc4)n3n2)cc1OC ?
NPR1 antag: 1%[70.6 µM]

What do the screens show for `Cc1cccc2nnc(N3CCN(C(=O)c4ccco4)CC3)n12`?
NPR1 antag: 3%

How did O=C1CCN(S(=O)(=O)c2ccccc2)CCCN(S(=O)(=O)c2cccs2)CCN1 do in these assays?
NPR1 antag: -1%

What do the screens show for `Cc1ccc(C2NC(=O)N(CC(=O)Nc3ccc4c(c3)OCCO4)C3=C2C(=O)OC3)cc1` (centres undefined)?
NPR1 antag: -9%

How did COc1ccc(C(=O)N2CCCC(c3nc(-c4cnccn4)no3)CCNC(=O)CC2)cc1F (centres undefined) do in these assays?
NPR1 antag: 5%

What do the screens show for `CC(C)(C)c1ccc(NC(=O)O[C@@H]2CO[C@H]3[C@@H]2OC[C@@H]3Nc2nccc(-c3ccccc3)n2)cc1`?
NPR1 antag: 1%

What do the screens show for `Cc1ccc(N2CC(c3noc(-c4nccc5ccccc45)n3)CC2=O)cc1` (centres undefined)?
NPR1 antag: -1%

Results for Cc1ccc(C(=O)NCC2CCN(c3cnn(C)c(=O)c3)C2)c(=O)n1C (centres undefined) ?
NPR1 antag: 5%

How did CCc1noc(-c2cn(C3CCN(C(=O)c4ccc(F)cc4)C3)nn2)n1 (centres undefined) do in these assays?
NPR1 antag: -17%

Results for COC(=O)[C@@H]1Cc2c([nH]c3ccccc23)[C@H]2C[C@@H](NCCO)C[C@@H](c3ccccc3F)N21 ?
NPR1 antag: -15%[70.6 µM]

How did COc1ccc(C2Cn3cnc(C(=O)N4CCC(C(=O)NCC5CCCO5)CC4)c3CO2)cc1 (centres undefined) do in these assays?
NPR1 antag: -10%

Results for O=C(C1CCN(C(=O)N2CC3CC(C2)[C@H]2CCCC(=O)N2C3)CC1)N1CCCCC1 (some centres undefined) ?
NPR1 antag: 0%

What do the screens show for `CCCCNC(=O)N1CC(C(=O)N2CCCC(C(=O)OCC)C2)CC(c2ccc(F)c(C)c2)C1` (centres undefined)?
NPR1 antag: -14%

What do the screens show for `O=C(NC1CCCCC1)N1CCC(N2CC(OCC3CC3)C23CCOCC3)CC1` (centres undefined)?
NPR1 antag: 5%

Filtered by structure: those above containing a thiophene ring, fused or not.
Results for O=S(=O)(c1ccsc1-c1nc(-c2cccnn2)no1)N1CCCC1 ?
NPR1 antag: -2%

What do the screens show for `O=C(NC1CCCc2c1[nH]c1ccccc21)c1cccs1` (centres undefined)?
NPR1 antag: -3%

How did Cc1ccc(C(=O)NC2CC(=O)N(CCCc3ccccc3)C2)s1 (centres undefined) do in these assays?
NPR1 antag: 2%

How did O=C1CCN(S(=O)(=O)c2ccccc2)CCCN(S(=O)(=O)c2cccs2)CCN1 do in these assays?
NPR1 antag: -1%

Next part
Results for N#Cc1cccc(-c2cn3c(n2)N(C(=O)Cc2cccs2)CCC3)c1 ?
NPR1 antag: -14%

What do the screens show for `CC(C)(C(=O)NCc1cccc(C(F)(F)F)c1)C1CCOCC1`?
NPR1 antag: 3%

Results for CCNC(=O)c1cccnc1OC1CCN(C(=O)CC2CCCC2)C1 (centres undefined) ?
NPR1 antag: -12%

What do the screens show for `O=C(NCc1ccncc1)C1CN(C(=O)c2ccccc2F)CC12CCOCC2` (centres undefined)?
NPR1 antag: -13%

Results for CCNC(=O)[C@@H]1C[C@H](NC(=O)c2cccc(Cl)c2)CN1C1CCOCC1 ?
NPR1 antag: 3%

Results for Cc1noc2c(-c3cccnc3NCc3cnccn3)cc(-c3ccccc3)nc12 ?
NPR1 antag: 2%[70.6 µM]

How did Cc1ccoc1C(=O)N1CCc2c(nc(-c3cccnc3)nc2N(C)C)C1 do in these assays?
NPR1 antag: 2%

What do the screens show for `CN(C)C[C@@H]1CN(c2ccncn2)C[C@H]1NC(=O)c1ccc(Cl)cc1`?
NPR1 antag: -3%

What do the screens show for `COc1ccc2[nH]c3c(c2c1)CCNC31CCN(S(=O)(=O)c2cccnc2)CC1`?
NPR1 antag: 8%

Results for CN(C(=O)CN1C(=O)C(c2ccccc2)=NC12CCCCC2)c1ccccc1 ?
NPR1 antag: -8%

How did Cc1cccc2c(C3CCN(S(=O)(=O)c4cc(F)c(F)cc4Cl)CC3)c[nH]c12 do in these assays?
NPR1 antag: -1%

Results for CC(=O)Nc1ccc(C(=O)N2CCc3cn(CC(C)C)c4cccc(c34)C2)cc1 ?
NPR1 antag: -12%

Results for O=C(Nc1ccc(F)cc1)c1cccn2cncc12 ?
NPR1 antag: -1%[70.6 µM]

Results for COc1cccc(NC(=O)N2CCN3C(=O)N(Cc4ccc(C)cc4)C[C@H]3C2)c1 ?
NPR1 antag: -1%[70.6 µM]

What do the screens show for `C[C@H]1[C@@H]2[C@@H](O)C([C@H](C)C(=O)NCc3ccccc3)CC[C@@]2(C)CC[C@@H]1NC(=O)c1ccncc1` (some centres undefined)?
NPR1 antag: 3%

Results for CN1C(=O)C(CC(=O)N(C)C2CCNCC2)(Cc2ccccc2)c2ccccc21 (centres undefined) ?
NPR1 antag: 5%

Results for COc1ccc(-c2ccc3c(c2)C(=O)N2CC[C@H](NC(=O)NC4CCCCC4)[C@H]2C(=O)N3)cc1 ?
NPR1 antag: 3%

Results for O=C(c1ccnc(Cl)c1)N1CC[C@H]2COC(=O)N2c2cc(F)ccc2C1 ?
NPR1 antag: 2%[70.6 µM]

Results for O=C1CC2(CCN(c3cnc4ccccc4n3)CC2)CN1CCCc1ccccc1 ?
NPR1 antag: inconclusive

How did Cc1cc(C[C@@H]2COC[C@@H]2NC(=O)c2ccc3n[nH]nc3c2)on1 do in these assays?
NPR1 antag: 3%

How did O=C1Nc2ccccc2O[C@H]2C[C@@H]1N(Cc1ccccc1Cl)C2 do in these assays?
NPR1 antag: -24%[70.6 µM]

What do the screens show for `Cc1ccc(OCC(=O)N2CCC(Cc3nc(-c4cnccn4)no3)CC2)cc1`?
NPR1 antag: 2%

Results for O=C(CCCc1ccccc1)N1CCC(Cc2nc(C3CC3)n[nH]2)C1 (centres undefined) ?
NPR1 antag: -12%

Results for O=C1c2c(-c3nc(-c4ccsc4)no3)nnn2CCN1Cc1cc(F)cc(F)c1 ?
NPR1 antag: 4%

Results for CC(C)CN1C(=O)c2ccccc2C(C(=O)NCc2ccccn2)C12CCCCC2 (centres undefined) ?
NPR1 antag: -1%

How did C=CCNC(=O)N[C@H]1[C@H](O)[C@@H](N2CCN(C)CC2)[C@@H]2OC[C@H]1O2 do in these assays?
NPR1 antag: 6%[70.6 µM]

How did COc1cccc(CC(=O)NC2CCN(c3cnn(C)c(=O)c3)CC2)c1 do in these assays?
NPR1 antag: -5%

Results for Cc1ccc(C(=O)N2CCC(OC3CCN(Cc4ccccc4)CC3)CC2)cc1 ?
NPR1 antag: 1%

Results for CCCC(=O)N1CCCN(C)c2ccccc21 ?
NPR1 antag: 2%

What do the screens show for `CCN(CC)CC[C@H]1CN(C(=O)CC(C)(C)C)CC[C@H]1CC(=O)O`?
NPR1 antag: -2%[70.6 µM]

Arranged by formula weight (low to high): part of the list above
What do the screens show for `COc1ccc(CNC(=O)C2Cn3cccc3C(=O)N2C)cc1OC` (centres undefined)?
NPR1 antag: -7%

What do the screens show for `COCC1CCN(c2ccc(-c3nc(-c4ccccc4C)no3)cn2)C1` (centres undefined)?
NPR1 antag: inconclusive

Results for CCN1CCN(CCNC(=O)c2cc(-c3ccc(Cl)cc3)cn2C)CC1 ?
NPR1 antag: -1%

What do the screens show for `O=C(NCc1ccncc1)C1CN(C(=O)c2ccccc2F)CC12CCOCC2` (centres undefined)?
NPR1 antag: -13%

Results for O=C1CC2(CCN(Cc3ccc(C(F)(F)F)cc3)CC2)Oc2ccccc2N1c1ccccc1 ?
NPR1 antag: -29%

How did COc1ccc(C(=O)N2CCCC(c3nc(-c4cnccn4)no3)CCNC(=O)CC2)cc1F (centres undefined) do in these assays?
NPR1 antag: 5%

(more compounds)
Results for O=C(c1ccco1)N1CCc2c(nc(-c3ccc(F)cc3)[nH]c2=O)C1 ?
NPR1 antag: -12%

What do the screens show for `CN(Cc1ccco1)C(=O)Cc1cccn1-c1cccc(Cl)c1`?
NPR1 antag: -14%

How did O=C(c1cccs1)N1CCC(N2C(=O)C(O)C23CCCCC3)CC1 (centres undefined) do in these assays?
NPR1 antag: 0%

Results for CC(=O)N1CCCC(c2nc(C(C)C)no2)CCNC(=O)CC1 (centres undefined) ?
NPR1 antag: 0%

What do the screens show for `O=C(Nc1cccc(-c2ccc(N3CCOCC3)nn2)c1)Nc1ccccc1F`?
NPR1 antag: inconclusive

How did COc1ccc(NC(=O)N2C[C@@H]3C[C@H](C2)c2ccc(NC(=O)C4CCCCC4)c(=O)n2C3)cc1 do in these assays?
NPR1 antag: 1%
